Screening results: PubChem BioAssay, Broad Institute
FGF22 binding: FGF22 (human) thermal shift binding. recombinant FGF22 thermal shift, SYPRO orange fluorescence; percent of sucrose octasulfate shift, DMSO zero. 1.5% of 340,000 active. Q9HCT0. calls only at 9.99 µM;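 active means melting point raised past a set limit in the mean and every replicate; three in four hits are not shown here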
Target sequence (Q9HCT0 whole entry, looked up): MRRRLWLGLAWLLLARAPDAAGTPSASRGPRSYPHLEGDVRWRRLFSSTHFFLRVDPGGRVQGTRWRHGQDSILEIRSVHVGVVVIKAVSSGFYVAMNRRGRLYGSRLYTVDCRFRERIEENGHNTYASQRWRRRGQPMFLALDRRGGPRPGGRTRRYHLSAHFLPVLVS
MLL AF4-AF9 inh: inhibitors of human MLL-AF4/AF9 interaction | P42568 | AlphaScreen, biotin-AF4 peptide binding to FLAG-AF9 | inhibition, % at 10 µM | 0.47% of 350,000 active | AID 651704;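 active means every replicate reaching a set inhibition limit, whatever the replicate mean, cut at about 25% in these data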;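 further: 0% = plate neutral control median and 100% = total signal loss; the record names both 10 and 1 µM as test concentration; the first replicate is given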
Target sequence (P42568 whole entry, looked up): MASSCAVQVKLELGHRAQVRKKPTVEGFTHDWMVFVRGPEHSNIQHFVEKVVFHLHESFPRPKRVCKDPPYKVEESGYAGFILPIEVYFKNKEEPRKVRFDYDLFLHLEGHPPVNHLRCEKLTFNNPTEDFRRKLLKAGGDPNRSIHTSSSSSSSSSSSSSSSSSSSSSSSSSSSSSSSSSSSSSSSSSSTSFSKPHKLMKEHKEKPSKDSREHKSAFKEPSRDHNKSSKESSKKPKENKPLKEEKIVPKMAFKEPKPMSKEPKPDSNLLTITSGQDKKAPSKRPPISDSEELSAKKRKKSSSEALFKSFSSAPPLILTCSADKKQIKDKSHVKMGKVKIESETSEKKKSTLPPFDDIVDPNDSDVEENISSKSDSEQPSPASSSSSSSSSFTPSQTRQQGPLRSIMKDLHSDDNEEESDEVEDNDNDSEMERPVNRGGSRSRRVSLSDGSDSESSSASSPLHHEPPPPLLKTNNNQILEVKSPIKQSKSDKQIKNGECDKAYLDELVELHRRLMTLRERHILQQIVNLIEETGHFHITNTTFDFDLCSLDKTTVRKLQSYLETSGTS
Numbers without * were called inactive; i = inactive; + = active, no number. This is a subset; count on the stated rates, not on these rows.

Screens in order: MLL AF4-AF9 inh, FGF22 binding
> CCCN(C)C[C@H]1Oc2ncc(-c3ccccc3F)cc2C(=O)N([C@H](C)CO)C[C@H]1C
    -1.6, i
> C[C@@H]1CCCCO[C@@H](CN(C)C(=O)NC2CCCCC2)[C@H](C)CN([C@H](C)CO)C(=O)c2cc(NS(=O)(=O)c3cn(C)cn3)ccc2O1
    0.5, i
> C[C@@H]1CN([C@H](C)CO)C(=O)Cc2cc(NC(=O)Nc3cccc4ccccc34)ccc2O[C@@H]1CN(C)C(=O)NC1CCCCC1
    -0.8, i
> C[C@@H]1CN([C@@H](C)CO)C(=O)Cc2cc(NS(=O)(=O)c3cccs3)ccc2O[C@H]1CN(C)C(=O)Nc1ccccc1
    -1.7, i
> O=C(C[C@@H]1CC[C@@H]2[C@H](COC[C@@H](O)CN2CC2CCOCC2)O1)NCC1CCCCC1
    -2.2, i
> CC(C)NC(=O)Nc1ccc2c(c1)C(=O)N([C@@H](C)CO)C[C@@H](C)[C@H](CN(C)CC1CCCCC1)OCCCC[C@H](C)O2
    -7.5, i
> COc1ccc(CN(C)C[C@@H]2Oc3ccc(NC(=O)NC4CCCCC4)cc3C(=O)N([C@H](C)CO)C[C@H]2C)cc1
    -2.1, i
> CCC(=O)N1C[C@H](C)[C@H](OC)CN(C)C(=O)c2cc(NC(=O)c3ccc(F)cc3)ccc2OC[C@H]1C
    3.2, i
> CC(C)NC(=O)N[C@H]1CC[C@@H](CC(=O)NCCN2CCCC2)O[C@@H]1CO
    -0.6, i
> C[C@@H]1CN([C@@H](C)CO)C(=O)Cc2cc(NC(=O)Cc3cn(C)c4ccccc34)ccc2O[C@H]1CN(C)S(=O)(=O)c1cn(C)cn1
    2.0, i
> O=C(C[C@H]1C=C[C@H](NC(=O)Nc2ccc(C(F)(F)F)cc2)[C@H](CO)O1)NCc1ccccn1
    -2.1, i
> CCNC(=O)[C@@H]1[C@@H](CO)[C@@H]2Cn3c(ccc(/C=C/c4ccccc4)c3=O)[C@@H]2N1C(=O)C1CC1
    -1.8, i
> CO[C@H]1CN(C)C(=O)c2cc(NC(=O)C3CCOCC3)ccc2OC[C@@H](C)NC[C@H]1C
    -2.2, i
> C[C@@H]1CN([C@@H](C)CO)C(=O)c2cccc(NC(=O)NC3CCCCC3)c2O[C@H]1CN(C)C(=O)Nc1ccc(F)cc1
    -3.1, i
> Cc1ccc(S(=O)(=O)N(C)C[C@@H]2Oc3ccc(NS(=O)(=O)c4ccc(Cl)cc4)cc3CC(=O)N([C@H](C)CO)C[C@H]2C)cc1
    -1.5, i
> COc1cccc(S(=O)(=O)N(C)C[C@H]2Oc3ncc(-c4cccc(C(=O)N(C)C)c4)cc3C(=O)N([C@H](C)CO)C[C@@H]2C)c1
    -0.5, i
> CCCN1C[C@@H](C)[C@H](OC)CN(C)C(=O)c2ccc(NC(=O)Nc3cccc(F)c3)cc2OC[C@@H]1C
    6.1, i
> COCC(=O)Nc1ccc2c(c1)C(=O)N(C)C[C@@H](OC)[C@@H](C)CN(C(=O)c1ccccc1)[C@H](C)CO2
    -0.8, i
> CN1CCN(C(=O)C[C@H]2CC[C@H]3[C@@H](COC[C@H](O)CN3CC3CCCCC3)O2)CC1
    -1.2, i
> C[C@@H]1CN([C@@H](C)CO)C(=O)c2cc(NS(C)(=O)=O)ccc2O[C@@H](C)CCCCO[C@H]1CN(C)Cc1ccncc1
    -7.4, i
> O=C(C[C@H]1CC[C@@H]2[C@H](COC[C@H](O)CN2S(=O)(=O)c2ccc(F)cc2)O1)N[C@@H]1CCN(Cc2ccccc2)C1
    1.3, i
> CCC(=O)Nc1ccc2c(c1)C(=O)N(C)C[C@H](OC)[C@@H](C)CN(C(=O)c1ccc(F)cc1)[C@@H](C)CO2
    -2.5, i
> O=C(C[C@H]1CC[C@@H]2[C@H](COC[C@@H](O)CN2Cc2cc(F)ccc2F)O1)NCc1ccc(F)cc1
    0.4, i
> Cc1noc(C)c1NC(=O)N(C)C[C@@H]1Oc2ccc(NC(=O)Cc3ccccc3)cc2C(=O)N([C@H](C)CO)C[C@H]1C
    -0.4, i
> C[C@@H]1CN([C@@H](C)CO)S(=O)(=O)c2ccc(C#CC3CC3)cc2O[C@@H]1CN(C)CC1CC1
    6.1, i
> COCC(=O)Nc1ccc2c(c1)C(=O)N(C)C[C@H](OC)[C@H](C)CN(Cc1ccncc1)[C@@H](C)CO2
    -0.7, i
> COc1ccccc1NC(=O)N1CCCCN2[C@@H](CO)[C@@H](c3ccc(-c4ccccc4)cc3)[C@@H]2C1
    8.4, i
> COc1ccc2c3c([nH]c2c1)[C@H](CO)N(C(=O)Nc1ccc(F)cc1)CC31CCN(C(=O)c2ccccn2)CC1
    -0.9, i
> Cc1noc(C)c1NC(=O)N(C)C[C@H]1OCCCC[C@H](C)Oc2ccc(NC(=O)NC3CCCCC3)cc2C(=O)N([C@@H](C)CO)C[C@@H]1C
    -13, +
> CO[C@@H]1CN(C)C(=O)c2cc(NC(=O)Nc3cccc(F)c3)ccc2OC[C@H](C)N(C)C[C@@H]1C
    4.2, i

The listing continues:
Screens in order: MLL AF4-AF9 inh, FGF22 binding
> Cc1noc(C)c1S(=O)(=O)N(C)C[C@H]1OCCCC[C@@H](C)Oc2ccc(NC(=O)Nc3ccc(F)cc3)cc2C(=O)N([C@@H](C)CO)C[C@H]1C
    -0.5, i
> C[C@H]1CN([C@@H](C)CO)C(=O)c2cc(NC(=O)C3CCCCC3)ccc2O[C@@H]1CN(C)Cc1ccc(C(F)(F)F)cc1
    0.2, i
> Cc1noc(C)c1NC(=O)Nc1cccc2c1O[C@H](CN(C)Cc1ccc(C(F)(F)F)cc1)[C@H](C)CN([C@@H](C)CO)C2=O
    -0.1, i
> CO[C@@H]1CN(C)C(=O)c2ccc(NS(=O)(=O)c3ccccc3F)cc2OC[C@@H](C)NC[C@@H]1C
    -2.1, i
> C[C@@H]1CN([C@H](C)CO)C(=O)c2ccccc2-c2ccccc2CO[C@H]1CN(C)C(=O)Cc1ccccc1
    -3.2, i
> C[C@H]1CN([C@@H](C)CO)C(=O)c2cccc(NS(C)(=O)=O)c2O[C@@H]1CN(C)Cc1ccc(C(=O)Nc2ccccc2N)cc1
    5.4, i
> O=C(C[C@@H]1C=C[C@H](NC(=O)C2CCOCC2)[C@H](CO)O1)NCC1CC1
    -2.5, i
> O=C(C[C@H]1C[C@H]2c3cc(NC(=O)NC4CCCCC4)ccc3O[C@H]2[C@H](CO)O1)NCc1ccccc1
    -0.4, i
> COCC(=O)Nc1ccc2c(c1)OC[C@@H](C)N(CC1CC1)C[C@@H](C)[C@H](OC)CN(C)C2=O
    -3.2, i
> Cc1ccc(S(=O)(=O)N(C)C[C@H]2Oc3ccc(NS(=O)(=O)c4ccc(Cl)cc4)cc3CC(=O)N([C@H](C)CO)C[C@H]2C)cc1
    -1.1, i
> O=C(NCCc1ccncc1)[C@H]1[C@H](CO)[C@H]2Cn3c(cccc3=O)[C@@H]1N2Cc1ccccc1F
    -2.1, i
> CC(=O)NC[C@@H]1[C@@H](c2ccc(-c3cccc(F)c3)cc2)[C@H](CO)N1C(C)=O
    -1.5, i
> C[C@@H]1CN([C@@H](C)CO)C(=O)CCCn2cc(nn2)CO[C@@H]1CN(C)C(=O)Nc1ccc(C(F)(F)F)cc1
    -0.2, i
> C/C=C/c1cnc2c(c1)C(=O)N([C@H](C)CO)C[C@@H](C)[C@@H](CN(C)C(=O)C1CCCCC1)O2
    -0.3, i
> O=C(Cc1ccccn1)NCC[C@H]1CC[C@H](NC(=O)Nc2ccc(Cl)cc2)[C@@H](CO)O1
    -19, i
> C[C@@H]1CN([C@@H](C)CO)C(=O)Cc2cc(NC(=O)Cc3ccccc3)ccc2O[C@H]1CN(C)S(=O)(=O)c1cccs1
    -5.0, i
> C[C@H]1CN([C@@H](C)CO)C(=O)Cc2cc(NC(=O)Cc3cn(C)c4ccccc34)ccc2O[C@@H]1CN(C)C(=O)Nc1ccc(F)cc1
    -2.1, i
> COCCNC(=O)C[C@H]1CC[C@H]2[C@H](COc3ccc(NC(=O)C4CCCC4)cc3C(=O)N2C)O1
    -2.1, i
> CO[C@H]1CN(C)C(=O)c2ccc(NC(=O)c3ccccc3)cc2OC[C@@H](C)N(CC2CC2)C[C@@H]1C
    -0.9, i
> COCC#Cc1ccc2c(c1)O[C@@H](CN(C)C(=O)C1CCC1)[C@H](C)CN([C@@H](C)CO)S2(=O)=O
    -1.9, i
> O=C(Nc1ccc2c(c1)[C@@H]1C[C@H](CC(=O)N3CCOCC3)O[C@H](CO)[C@@H]1O2)NC1CCCCC1
    0.5, i
> NC(=O)NCC#Cc1ccc2c(c1)[C@]1(C(=O)N2)[C@H](c2ccccc2OCCO)N2[C@H](c3ccccc3)[C@H](c3ccccc3)OC(=O)[C@H]2[C@@H]1C(=O)O
    -0.7, i
> COc1cccc(CNC(=O)[C@H]2CCCN2C(=O)[C@H]2CCCN2C(=O)c2cccc(F)c2)c1
    -2.8, i
> C[C@@H](NC(=O)C[C@H]1C=C[C@H](NC(=O)Cc2ccccn2)[C@H](CO)O1)c1ccccc1
    -0.2, i
> COc1ccc([Si](C)(C)[C@H]2[C@H](CCO)O[C@@]3(C(=O)N(Cc4ccc(N5CCOC5=O)cc4)c4ccccc43)[C@@H]2C)cc1
    1.2, i
> Cc1noc(C)c1NC(=O)Nc1ccc2c(c1)CC(=O)N([C@H](C)CO)C[C@@H](C)[C@H](CN(C)Cc1ccccc1)O2
    -2.6, i
> C[C@H]1CN([C@@H](C)CO)C(=O)c2cc(NS(C)(=O)=O)ccc2O[C@H]1CN(C)Cc1ccc2c(c1)OCO2
    -18, i
> C[C@@H]1CN([C@H](C)CO)C(=O)c2cccc(NC(=O)Nc3ccc4c(c3)OCO4)c2O[C@@H]1CN(C)CC1CCCCC1
    3.0, i
> C[C@@H]1CN([C@@H](C)CO)C(=O)c2cc(-c3cncnc3)cnc2O[C@@H]1CN(C)C(=O)Cc1cccnc1
    -7.8, i
> COC(=O)C[C@@H]1CC[C@H]2[C@@H](COC[C@@H](O)CN2S(=O)(=O)c2ccccc2C)O1
    -2.4, i

Exported with values ahead of the structure: 3 of the compounds above.
MLL AF4-AF9 inh | FGF22 binding | SMILES
-2.1 | i | C[C@H]1CN([C@@H](C)CO)C(=O)Cc2cc(NC(=O)Cc3cn(C)c4ccccc34)ccc2O[C@@H]1CN(C)C(=O)Nc1ccc(F)cc1
-2.1 | i | COCCNC(=O)C[C@H]1CC[C@H]2[C@H](COc3ccc(NC(=O)C4CCCC4)cc3C(=O)N2C)O1
-0.9 | i | CO[C@H]1CN(C)C(=O)c2ccc(NC(=O)c3ccccc3)cc2OC[C@@H](C)N(CC2CC2)C[C@@H]1C

Carrying on.
Screens in order: MLL AF4-AF9 inh, FGF22 binding
> C[C@@H]1CN([C@H](C)CO)C(=O)Cc2cc(NS(=O)(=O)c3cccs3)ccc2O[C@@H]1CN(C)C(=O)Nc1ccc(C(F)(F)F)cc1
    -3.3, i
> CC(C)NC(=O)Nc1ccc2c(c1)C(=O)N([C@H](C)CO)C[C@H](C)[C@@H](CN(C)Cc1ccc(C(=O)O)cc1)O2
    -4.5, i
> CCCC#Cc1cnc2c(c1)C(=O)N([C@@H](C)CO)C[C@@H](C)[C@@H](CN(C)C(=O)Nc1cc(F)ccc1F)O2
    0.9, i
> COc1ccc(-c2cnc3c(c2)C(=O)N([C@@H](C)CO)C[C@@H](C)[C@H](CN(C)Cc2ccc(C(=O)O)cc2)O3)cc1
    -3.3, i
> COc1ccc(S(=O)(=O)Nc2ccc3c(c2)CC(=O)N([C@H](C)CO)C[C@H](C)[C@H](CN(C)S(=O)(=O)c2ccc(Cl)cc2)O3)cc1
    -0.2, i
> CCC(=O)N(C)C[C@@H]1Oc2cc(/C=C/c3ccccc3)ccc2S(=O)(=O)N([C@@H](C)CO)C[C@@H]1C
    11, i
> C[C@H](CO)N1C[C@H](C)[C@H](CN(C)Cc2ccc(C(=O)O)cc2)Oc2ncc(-c3ccccc3)cc2C1=O
    -5.4, i
> Cc1noc(C)c1S(=O)(=O)N(C)C[C@@H]1OCCCC[C@H](C)Oc2ccc(NC(=O)Nc3ccc(C(F)(F)F)cc3)cc2C(=O)N([C@H](C)CO)C[C@H]1C
    -1.7, i
> Cc1ccccc1S(=O)(=O)N1CCCCN2[C@H](CO)[C@H](c3ccc(C#CCN(C)C)cc3)[C@H]2C1
    3.1, i
> C[C@@H]1CN([C@@H](C)CO)C(=O)c2cc(NC(=O)c3ccncc3)ccc2O[C@@H]1CN(C)S(=O)(=O)c1ccc(Cl)cc1
    -1.7, i
> C[C@@H]1CCCCO[C@H](CN(C)C(=O)c2ccncc2)[C@H](C)CN([C@H](C)CO)C(=O)c2cc(NC(=O)C3CCCCC3)ccc2O1
    -2.8, i
> O=C(Nc1ccccc1F)N1C[C@@H]2[C@H](c3ccccc31)[C@@H](CO)N2C(=O)Cc1ccccc1
    -0.5, i
> C[C@H]1CN([C@@H](C)CO)C(=O)c2cc(NC(=O)CCCN(C)C)ccc2O[C@H]1CN(C)C(=O)NC1CCCCC1
    -5.4, i
> COc1ccc(CNC(=O)C[C@H]2C[C@H]3c4cc(NC(=O)NC5CCCC5)ccc4O[C@H]3[C@H](CO)O2)cc1
    0.7, i
> C[C@@H]1CCCCO[C@@H](CN(C)C(=O)CCCN(C)C)[C@H](C)CN([C@@H](C)CO)C(=O)c2cc(NC(=O)NC3CCCCC3)ccc2O1
    -1.3, i

2 entries from above in another layout:
> COc1ccc(-c2cnc3c(c2)C(=O)N([C@@H](C)CO)C[C@@H](C)[C@H](CN(C)Cc2ccc(C(=O)O)cc2)O3)cc1
  MLL AF4-AF9 inh = -3.3
  FGF22 binding = i
> COc1ccc(S(=O)(=O)Nc2ccc3c(c2)CC(=O)N([C@H](C)CO)C[C@H](C)[C@H](CN(C)S(=O)(=O)c2ccc(Cl)cc2)O3)cc1
  MLL AF4-AF9 inh = -0.2
  FGF22 binding = i
